AID504770: growth inhibitors of E. coli YBA685 in a screen for V. cholerae RctB (chromosome II replication) inhibitors; E. coli YBA685 rctB-dependent plasmid, OD600 growth, 3 h; stronger effect = lower value; z-score (test concentration not listed); hit rate 0.27% among 130,000;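 active = z-score under -2 on both plates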;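 note: wells of about 30 µL received 100 nL stock; score is relative to mean and SD of the test wells; the first replicate is given; strong numbers were not always called active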
CapD inh: inhibitors of Bacillus anthracis CapD enzyme. purified CapD enzyme, fluorescence intensity read-out; stronger effect = lower value; some hits fall short of the stated cut. z-score (test concentration not listed). hit rate 0.23% among 140,000. AID 492967;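 active = z-score under -4 in either of two replicates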;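 note: stock transfer was 100 nL into about 40 µL; score is relative to mean and spread of the plate; one replicate is shown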
Starred values were filed as active, the others as inactive; . = no result given; & = joins results of further samples.

Each structure is followed by: AID504770 | CapD inh
NC(=O)C1CCN(C(=O)CCCc2nnc3n4nc(-c5ccccc5)nc4c4ccccc4n23)CC1
    -0.6 | -0.145
O=C(O)CSc1ncnc2c1oc1ccccc12
    -2 | .
O=c1cc(-c2ccccc2)c2ccc(O)c(O)c2o1
    -0.2 | -2.18
Cc1cc(I)ccc1NC(=O)C1CC(O)CN1C(=O)Oc1ccccc1 (stereo not given)
    . | 6.21
CCOC(=O)C1=C(C)N(c2ccc(F)cc2)C(=O)C1CC(=O)Nc1ccc(F)cc1 (stereo not given)
    . | 0.07
CC1(C)CC(=O)C2=C(C1)NC(Nc1nc3ccccc3o1)=NC21CCCCC1
    -1.15 | 1.04
CNC(=S)NC1=NCCS1
    -0.75 | .
Cc1sc2nc(/C=C/c3ccco3)oc(=O)c2c1C
    . | 0.15
Cc1c(O)nc(N)[nH]c1=O
    -0.15 | 1.29
COc1ccc(-c2cc(C(F)(F)F)nc(SCC(=O)N3CCCCCC3)n2)cc1OC
    0.9 | -0.22
CC(=O)Nc1ccc(S(=O)(=O)N2CC(=O)NC(=O)C2)cc1
    . | -0.685
CC(NC(=O)c1nn(C)c(=O)c2ccccc12)c1ccccc1 (stereo not given)
    0.9 | -0.055
Cc1cccc(CC(=O)c2c[nH]c3ccccc23)c1
    -0.65 | 0.19
O=C(CSc1nc2cc(C(=O)NCCCN3CCOCC3)ccc2c(=O)n1CC1CCCO1)c1ccc(F)cc1 (stereo not given)
    . | 0.24
CSC1=NCCN1C(=O)c1nn(-c2ccccc2)nc1C
    . | 0.485
O=C(NC(Cc1ccccc1)C(=O)Nc1nnc(-c2ccco2)o1)OCc1ccccc1 (stereo not given)
    -1.25 | .
O=C(C1CCCN(S(=O)(=O)c2cnc[nH]2)C1)N(CCc1ccccc1)Cc1ccccc1 (stereo not given)
    0.95 | -1.02
CCN1CCN(C(=O)c2ccc(Cn3c(=S)[nH]c4ccc(Br)cc4c3=O)cc2)CC1
    . | -0.35
N#Cc1c(-c2ccco2)cc(-c2ccccc2)[nH]c1=O
    0.05 | 6.4
CCCn1c(=O)[nH][nH]c1=S
    -0.15 | .
O=C(CCc1nnc(SCC(=O)N2CCc3ccccc32)[nH]c1=O)OCC(=O)N1CCc2ccccc21
    -0.1 | .
COc1ccc(N2CCN(Cc3nc4ccccc4[nH]3)CC2)cc1
    -0.1 | .
O=C1C2CC=C(Cl)CC2C(=O)N1CN(Cc1ccco1)CN1C(=O)C2CC=C(Cl)CC2C1=O (stereo not given)
    . | -0.09
COc1cc(NC(=O)NCCSCc2ccco2)cc(OC)c1
    . | 0.5
CCN(c1ccccc1)S(=O)(=O)c1ccc(Cl)cc1
    0.25 | .
N#Cc1cccc(N/C=C2/C(=O)c3c(F)cccc3C2c2ccccc2)c1 (stereo not given)
    . | 0.09
FC(F)Oc1ccc(N=C=S)cc1
    0.35 | .
Cc1cc(C(=O)N2CCN(Cc3ccco3)CC2)nn1C
    . | 0.065
Cc1cccc(C2C3=C(CCCC3=O)N=C3c4ccccc4C(=O)C32)c1 (stereo not given)
    . | -0.195
O=C(O)C(C(=O)/C=C/c1ccccc1)=C1SCS1
    -1 | .
O=C1/C(=N\OCc2cccc(C(F)(F)F)c2)c2ccccc2N1c1ccccc1
    . | -0.165
Cc1cc(C)n(CCc2nc3c4ccccc4n(CC#N)c(=O)n3n2)n1
    -0.45 | -0.535
ClC(Cl)=Cn1nnnc1-c1ccccc1
    -0.65 | -0.485
COc1ccc(-c2nc(CN(C)Cc3cccs3)cs2)cc1OC
    -1.55 | .
S=C(NCc1ccccc1)N1CCn2cccc2C1c1cccnc1 (stereo not given)
    0.35 | .
O=C(CN1CCC(O)(c2ccc(F)cc2)CC1)NCc1ccc(F)cc1
    -0.15 | .
Cc1ccc(NCC(O)CSc2nc3c(cc2C#N)CCCC3)cc1 (stereo not given)
    2.15 | -0.875
O=C(CN1C(=O)/C(=C2\SC(N3CCOCC3)=NC2=O)c2ccccc21)Nc1cccc(C(F)(F)F)c1
    . | 0.17
COCc1cc(C)nc2sc(C(O)c3ccccc3)c(NC(=O)c3ccco3)c12 (stereo not given)
    -0.35 | 0.255
CC(C)C[N+]1(C)Cc2ccccc2C1
    -0.1 | 1.56
CSc1sc(-c2ccnc(SCC(=O)C(C)(C)C)n2)c2c1C(=O)CC(C)(C)C2
    -0.1 | 0.705
CCCC1(C(=O)OCC)NC(c2ccccc2F)C2C(=O)N(c3ccccc3)C(=O)C21 (stereo not given)
    -0.4 | .
C[N+]1(CC(O)CN2CCCC2=O)CCCCCC1 (stereo not given)
    -1 | -0.025
NS(=O)(=O)c1ccc(NC(=O)CCC(=O)O)cc1
    . | 0.085
O=C(O)CSCCc1ccncc1
    1.8 | 2.21
COc1ccc(C(=O)NC(c2ccc(OC)cc2)c2cc(Cl)c3cccnc3c2O)cc1 (stereo not given)
    . | -0.72
Clc1cc(Cl)c2c(c1)C=C1CCCCC1(N1CCCCC1)O2 (stereo not given)
    . | -0.225
CCN1CCN(C(=O)c2cc(Nc3ccc(C)c(C)c3)nc3ccccc23)CC1
    -0.8 | -0.52
O=S(=O)(NCC1COc2ccccc2O1)c1ccc2c(c1)CCO2 (stereo not given)
    0.8 | 0.97
CC1=NCCN1S(=O)(=O)c1ccc(I)cc1
    0.45 | -0.02
Cn1c(-c2ccccc2)c(CCO)c2ccccc21
    -0.4 | .
O=C1CCc2cc(S(=O)(=O)NCC3CCCO3)cc3c2N1CC3 (stereo not given)
    0.8 | .
CNC(=O)COc1c(C)cc(SC)cc1C
    -0.85 | -0.54
N#Cc1cccc(C(=O)Nc2ccccc2)c1
    -0.75 | .
CSc1nnc(C2CCCN2CC(=O)Nc2ccc(Oc3ccccc3)cc2)n1C (stereo not given)
    0.2 | .
Cc1c(C)n(Cc2ccc(Br)cc2)c(=O)n(Cc2ccc(Br)cc2)c1=O
    -0.4 | -0.84
CCn1c(=O)[nH]c(=O)c2cc(C(=O)c3cc(Cl)cc(Cl)c3O)cnc21
    -0.3 | .
Brc1ccc2[nH]cc(C=Nc3ccc4c(c3)OCO4)c2c1
    -0.95 | 0.4
CCCOC(=O)C(C)Oc1ccc2c(=O)c(Oc3ccccc3Br)coc2c1 (stereo not given)
    . | -0.43
COc1ccc(C(=O)c2oc3ccccc3c2NC(=O)C(C)(C)C)cc1
    -0.95 | 0.55

In the list so far, these have a Cl atom.
Each structure is followed by: AID504770 | CapD inh
O=C1C2CC=C(Cl)CC2C(=O)N1CN(Cc1ccco1)CN1C(=O)C2CC=C(Cl)CC2C1=O (stereo not given)
    . | -0.09
CCN(c1ccccc1)S(=O)(=O)c1ccc(Cl)cc1
    0.25 | .
ClC(Cl)=Cn1nnnc1-c1ccccc1
    -0.65 | -0.485
COc1ccc(C(=O)NC(c2ccc(OC)cc2)c2cc(Cl)c3cccnc3c2O)cc1 (stereo not given)
    . | -0.72
Clc1cc(Cl)c2c(c1)C=C1CCCCC1(N1CCCCC1)O2 (stereo not given)
    . | -0.225
CCn1c(=O)[nH]c(=O)c2cc(C(=O)c3cc(Cl)cc(Cl)c3O)cnc21
    -0.3 | .

Rewritten bar-delimited: entries from further up
canonical_smiles | AID504770 | CapD inh
CCN1CCN(C(=O)c2cc(Nc3ccc(C)c(C)c3)nc3ccccc23)CC1 | -0.8 | -0.52
O=S(=O)(NCC1COc2ccccc2O1)c1ccc2c(c1)CCO2 (stereo not given) | 0.8 | 0.97
CC1=NCCN1S(=O)(=O)c1ccc(I)cc1 | 0.45 | -0.02

Additional results.
Each structure is followed by: AID504770 | CapD inh
COc1ccc(OCCC(=O)N2CCN(c3ccccc3)CC2)cc1
    -0.2 | -0.335
N=C1/C(=C2\NC(c3ccc(Br)cc3)=CS2)CC(=O)N1C1CC1
    -0.4 | .
CCOC(=O)c1c2n(c3cc(Br)c(OC)cc13)CCN(c1ccc(F)cc1)C2
    . | 0.42
CCCc1cc(SCC(=O)OC)n2c(nc3ccccc32)c1C#N
    -0.65 | .
NC(=O)C1CCN(CC(O)COc2ccccc2F)CC1 (stereo not given)
    0 | .
Cc1ccc(C)n1CCOC(=O)c1cccc(S(=O)(=O)NCc2ccccc2)c1
    0.3 | .
S=c1[nH]nc(-c2cccs2)n1/N=C/c1c(Cl)cccc1Cl
    . | 0.15
O=C(c1cccnc1)N(Cc1ccccc1)C1(C(=O)Nc2ccccc2)CCCCC1
    -0.15 | 0.53
CCOC(=O)c1sc(=S)n(Cc2ccco2)c1C
    0.15 | .
Cc1ccc2nc(NC(=O)c3ccc(Cn4cc(Cl)cn4)o3)sc2c1
    0.35 | 0.645
COc1cc2nc3c4ccccc4n(C(C)C)c3nc2cc1OC
    . | 2.79
Cc1cc(C)c(C(=O)O)c(CC(C)(C)C(=O)N2CCC(O)(Cc3ccccc3)CC2)c1
    . | -0.995
CCn1c2ccccc2c2cc(CN3CCN(C(=O)OCCN(Cc4ccc5c(c4)c4ccccc4n5CC)C(=O)OC(C)(C)C)CC3)ccc21
    . | 3.62
COC(=O)CC1COc2ccccc2N1C(=O)c1ccc(Cl)cc1 (stereo not given)
    0.2 | -0.195
C=CCNc1nc(Nc2ccc(OC)cc2)nc(OC)n1
    -0.75 | .
Cc1sc2ncnc(N3CCOCC3)c2c1-c1ccc(F)cc1
    -0.2 | .
CCOC(=O)Cc1cc(=O)n2[nH]c(-c3ccccc3)cc2n1
    -0.75&0.3 | 7.59
CCc1ccc2[nH]c(=O)c(C(c3nnnn3Cc3ccccc3)N(Cc3ccccc3)Cc3ccco3)cc2c1 (stereo not given)
    0.45 | .
CNC(=O)n1nccc1-c1ccc(-c2cccs2)s1
    -0.55 | 46.6
Cc1cccc(Cn2nnc(C(=O)Nc3ccc(Br)cc3)c2N)c1
    0 | 0.495
CCN(CC)c1ccc(C(=O)N=c2sc3cc(OC)ccc3n2CCOC)cc1
    -0.05 | 5.94
O=C(/C=C/c1ccc2c(c1)OCO2)N1CCN(S(=O)(=O)/C=C/c2ccccc2)CC1
    -0.55 | .
Cc1ccc(/C(C#N)=C2C=C(Cl)/C(=N/O)C=C\2Cl)cc1
    . | -1.08
Cc1ccc(S(=O)(=O)N(/C=C2\Sc3ccccc3C2=O)c2ccc([N+](=O)[O-])cc2)cc1
    . | -0.405
CCOc1ccc2oc(C(=O)OC3CCCC3=O)c(C)c2c1 (stereo not given)
    -0.05 | .
Cc1ccc(S(=O)(=O)Nc2cc3c4c(oc3c3ccccc23)CCC(C(C)(C)C)C4)c(C)c1 (stereo not given)
    . | -0.135
O=C1CCCN2N=C(SCc3ccccc3)SC2=N1
    -0.45 | 0.035
COc1ccccc1-c1nnc(NC(=O)CSCc2ccccc2)s1
    -0.3 | -0.305
Cc1ccc(S(=O)(=O)CCc2nnc(NC(=O)CSc3ccc(Cl)cc3)s2)cc1
    . | -0.855
Oc1c(CN2CCCCC2)ccc2cccnc12
    0.35 | .
Cc1cc(N2CCN(S(=O)(=O)c3ccc(F)cc3)CC2)c2ccccc2n1
    . | 0.32
Cc1ccc(S(=O)(=O)N2CCC3(CC2)OCCO3)cc1
    0.55 | 0.975
O=C1CC(c2nc3ccccc3[nH]2)CN1CCc1ccccc1 (stereo not given)
    0.15 | .
Cc1ccc(-n2nc(C)c3c(C)cc(C(=O)O)nc32)cc1C
    -0.15 | 0.395
COc1ccc(OCC(O)Cn2cnc3ccccc32)cc1 (stereo not given)
    -0.8 | -0.44
CCC(CC)C(=O)NC1CCSC1=O (stereo not given)
    -0.85 | .
FC(F)(F)c1ccc(-c2nc(-c3ccccc3)ncc2-c2ccncn2)cn1
    . | -0.7
CCOC(=O)c1ccc(Nc2nnc(-c3cc4c(ccc5ccccc54)oc3=O)s2)cc1
    . | -1.02
O=S(=O)(NCCc1ccc(OCc2ccccc2)c(OCc2ccccc2)c1)c1cccc(F)c1
    . | -0.045
N#CCCN(Cc1cccnc1)C(=O)Nc1ccccc1
    -0.9 | .
CC(C)CNC(=O)/C(=C/c1cn(-c2ccccc2)nc1-c1ccc(Cl)cc1)NC(=O)c1ccccc1
    . | 2.38
CCCC1=C(C(=O)OCC)C2(C(=O)N1)C(C(=O)OC(C)C)=C(N)Oc1ccccc12 (stereo not given)
    -0.75 | 0.53
COC(=O)c1ccccc1NC(=S)NC(=O)/C=C/c1ccco1
    -0.75 | -2.22
O=C(NCc1ccco1)N(c1ccccc1)c1ccccc1
    -0.4 | .
CC(C)(C)NC(=O)C1CC2CCCC(C1)C2=O (stereo not given)
    -0.6 | 0.395
CS(=O)C1CCCCC1(O)CSc1nc(-c2cccs2)cc(-c2ccccc2)c1C#N (stereo not given)
    -1.4 | -0.93
CC1SCC(NC(=O)c2ccccc2Cl)CS1 (stereo not given)
    0.55 | 0.375
CC1(C)CC(NCc2ccccc2)=CC(=C(C#N)C#N)C1
    0.45 | -0.55
CC(=O)Nc1nonc1Nc1cc(C)nn1-c1ccccc1
    -0.4 | -0.07
CCOc1ccc(N2C(=O)NC(=O)/C(=C/c3cc(Cl)c(O)c(OC)c3)C2=O)cc1
    . | -0.415
CC(=O)N1C(=O)C2(N=C(N)NC(Nc3cccc(C(F)(F)F)c3)=N2)c2ccccc21 (stereo not given)
    1.35 | .
COC(=O)c1ccc(C2(C#N)C(=O)Nc3ccccc32)cc1 (stereo not given)
    0.75 | -1.56
CCCc1cc(=O)n(CC(=O)NCc2ccccc2Cl)c(-n2nc(C)cc2C)n1
    2.2 | .
NC(Cc1ccc2nsnc2c1)C(=O)O (stereo not given)
    -0.7 | .
O=C(O)c1cc2c3c(c1)C1C=CCC1C(c1ccc(Br)cc1)N3CC1CC=CC21 (stereo not given)
    . | -0.02
CC(NC(=O)C1CCCCN1S(=O)(=O)c1cccc2nsnc12)C12CC3CC(CC(C3)C1)C2 (stereo not given)
    1 | .
Fc1ccc(-c2nnsc2Sc2ccc(Br)cc2)cc1
    . | -0.115
CS(=O)(=O)N1CCC(C(=O)NC2CCCC2)CC1
    0.4 | 0.495
